# WNV protease inh: inhibitors of West Nile virus NS2B-NS3 protease; WNV NS2B-NS3 protease, fluorogenic substrate Ex360/Em465; stronger effect = lower value; z-score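 (tested at a level between 10 and 100 µM)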; 0.18% of 65,000 active; AID 577;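 active means z-score at -3 or under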;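 further: score is relative to mean and spread of the compound wells of a plate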
# Target sequence (P06935 1371-1501 limits assumed): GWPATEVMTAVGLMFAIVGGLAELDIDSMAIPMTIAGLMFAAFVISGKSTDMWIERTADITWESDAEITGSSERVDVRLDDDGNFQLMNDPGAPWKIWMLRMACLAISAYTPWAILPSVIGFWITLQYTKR
# Target sequence (P06935 1502-1679 limits assumed): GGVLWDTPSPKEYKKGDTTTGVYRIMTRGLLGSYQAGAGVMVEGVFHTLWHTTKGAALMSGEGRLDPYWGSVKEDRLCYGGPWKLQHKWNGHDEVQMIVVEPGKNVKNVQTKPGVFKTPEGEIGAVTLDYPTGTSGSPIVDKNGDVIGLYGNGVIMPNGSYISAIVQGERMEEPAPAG
# Starred values were filed as active, the others as inactive; & = joins results of further samples. This is a subset. The share of hits here may be higher or lower than overall.
SMILES,WNV protease inh
CC(C)Oc1ccc(-c2cc(=O)[nH]c(=O)[nH]2)cc1,-0.3
Clc1ccc(Cn2c(CN3CCCC3)nc3ccccc32)cc1,0.16
CCOC(=O)C1CCCN(C(=O)CN2CCN(Cc3ccc(Cl)cc3)C2=O)C1 (stereo not drawn),1.1
COc1ccccc1N1CCN(C(CNS(=O)(=O)c2ccc(C)cc2)c2cccnc2)CC1 (stereo not drawn),0.02
Cc1cccc(C2CC(c3ccc(Br)cc3)Nc3nc(N)nn32)c1 (stereo not drawn),-0.13
O=C(Nc1ccc(Cl)cc1F)C1CCN(S(=O)(=O)c2cccnc2)CC1,1.4
CC(C)(C)n1nnnc1C(c1cccc(C(F)(F)F)c1)N1CCOCC1 (stereo not drawn),0.06
COc1ccc(-c2nnc(COc3ccc4ccccc4c3)o2)cc1OC,-1.4
COC(=O)c1sccc1NC(=O)c1ccc2c(c1)OCO2,0.73
O=C(C1CCN(S(=O)(=O)c2ccc(Br)s2)CC1)N1CCc2ccccc21,0.79
Cn1c(=O)c2c(nc(OCC3COC(C)(C)O3)n2Cc2ccccc2F)n(C)c1=O (stereo not drawn),-0.84
O=C(CCN1CCN(C/C=C/c2ccccc2)CC1)Nc1ccccc1,0.52
COc1ccc(S(=O)(=O)Nc2nnc(C)s2)cc1,-0.53
c1ccc(-c2noc(-c3cccnc3)n2)cc1,0.2
COc1ccccc1C(=O)Nc1ccc2c(c1)OCO2,1.8
COc1ccc(C)cc1NC(=O)CN(C)S(=O)(=O)c1cccs1,0.3
COc1cc(OC)c(NC(=O)CCc2nc(-c3cccs3)no2)cc1Cl,1.7
CC1(C)CNC(=O)C=C(c2ccccc2)C1,1.7
COc1ccc(NC(=O)C2CCC(C)(C(=O)O)C2(C)C)cc1 (stereo not drawn),0.9
OCCNc1ncnc2c1c(-c1ccccc1)c(-c1ccccc1)n2Cc1ccco1,0.0078
O=P1(Nn2cnnc2)C=C(c2ccccc2)OC(c2ccccc2)=C1,-1
C=CCN(CC=C)CC(O)Cn1c2ccccc2c2ccccc21 (stereo not drawn),-0.1
COc1ccc(-c2noc(CCC(=O)Nc3cc(OC)ccc3OC)n2)cc1,0.46
COc1cc(OC)cc(-c2cc3nc(C)c(CCC(=O)O)c(C)n3n2)c1,0.45
CN(C)c1ccc(C2C3C(=O)NC(=O)C3ON2c2ccc(Cl)cc2)cc1 (stereo not drawn),-1.8

# 4 entries from above, as labelled records.
COc1ccc(-c2nnc(COc3ccc4ccccc4c3)o2)cc1OC
  WNV protease inh: -1.4

COC(=O)c1sccc1NC(=O)c1ccc2c(c1)OCO2
  WNV protease inh: 0.73

O=C(C1CCN(S(=O)(=O)c2ccc(Br)s2)CC1)N1CCc2ccccc21
  WNV protease inh: 0.79

Cn1c(=O)c2c(nc(OCC3COC(C)(C)O3)n2Cc2ccccc2F)n(C)c1=O (stereo not drawn)
  WNV protease inh: -0.84

# Next part:
SMILES,WNV protease inh
COc1ccc(N2CCN(C(=O)CN(c3ccc(Br)cc3)S(C)(=O)=O)CC2)cc1,0.78
COc1cc(-c2ccccc2)nc(N)n1,-0.73
O=C1CC(c2ccccc2)c2cc(O)ccc2O1 (stereo not drawn),-0.26
O=C(CCNc1cccc(C(F)(F)F)c1)c1ccco1,0.51
COc1cc2c(cc1OC)-c1nnc(C)n1C1(CCCC1)C2,1.3
CCn1c(=O)c(C(=O)Nc2nc3ccccc3[nH]2)c(O)c2ccccc21,-1
CC(=O)N1c2ccccc2C(C)CC12CCCCC2 (stereo not drawn),0.53
Cc1cc(C)cc(CC2CC(=O)N(c3nc(C)cc(C)n3)C2=O)c1 (stereo not drawn),-0.03
c1ccc2c(CCNc3ncnc4nc[nH]c34)c[nH]c2c1,-1
Cc1[nH]c(=O)[nH]c(=O)c1S(=O)(=O)N1CCCC(C(=O)N2CCN(c3ccccc3Cl)CC2)C1 (stereo not drawn),-0.2
COc1ccc(C(=O)n2nc(C)cc2C)cc1OC,0.56
CC(C)Cc1cc(C(=O)NCCCN2CCOCC2)no1,0.16
CCOC(=O)N1CCN(C(=O)Cn2nc(-c3ccc(Cl)cc3)ccc2=O)CC1,1.7
C=CCSc1nnc(-c2ccncc2)n1-c1ccc(OCC)cc1,-1.4
COC(=O)c1ccc(C(C(=O)NCc2ccccc2)N(Cc2ccco2)C(=O)c2cnccn2)cc1 (stereo not drawn),0.06
CS(=O)(=O)c1ccc2nc(NC(=O)CN3CCN(Cc4ccccc4)CC3)sc2c1,-0.86
CSCCC(NS(=O)(=O)c1cccs1)C(=O)NCc1cccs1 (stereo not drawn),-1.2
Cc1cc(C)n(Cc2ccc(C(=O)NCc3ccco3)o2)n1,1.6
O=C(Nc1nnc(COc2ccc(Cl)cc2)s1)c1cccs1,-0.84
O=c1c2c3c(sc2nc2n1CCC2)CCC3,-0.72
COc1ccc(S(=O)(=O)Cc2ccc(C(=O)NCCc3ccc(S(N)(=O)=O)cc3)o2)cc1,0.18
Cc1cc2nnc(SCC(=O)NCc3ccco3)n2c2ccccc12,-0.11
COc1cccc(C(=O)CN2CCN(S(=O)(=O)c3ccc(Br)cc3)CC2)c1,0.67
COc1ccc(-c2noc(CCC(=O)NCCN(C)Cc3ccccc3)n2)cc1,0.01
CCc1ccc(S(=O)(=O)NCCc2cn3ccsc3n2)s1,1.9

# 3 structures out of the list, ordered by length of the SMILES, rising.
SMILES,WNV protease inh
COc1cc(-c2ccccc2)nc(N)n1,-0.73
CSCCC(NS(=O)(=O)c1cccs1)C(=O)NCc1cccs1 (stereo not drawn),-1.2
Cc1cc(C)cc(CC2CC(=O)N(c3nc(C)cc(C)n3)C2=O)c1 (stereo not drawn),-0.03

# Next section
SMILES,WNV protease inh
Cc1cc(NC(=O)CCN2CCC(C(N)=O)CC2)ccc1Br,-1
Cn1c(CCCOc2ccc(Cl)cc2Cl)nnc1SCC(=O)Nc1nccs1,-0.31
COc1cc(OC)cc(C(=O)Nc2ccc(-c3nc4ccccc4o3)c(O)c2)c1,-0.69
COc1cc(NC(=O)C2CCCN2S(=O)(=O)c2cccc3cccnc23)cc(OC)c1OC (stereo not drawn),0.78
CC(C)CN(CC(C)C)S(=O)(=O)N1CCC(C(=O)NC2CCCCCCC2)CC1,1.7
Cc1nnc(N2C(=O)C(O)=C(C(=O)c3ccco3)C2c2ccc(F)cc2)s1 (stereo not drawn),1.1
Cc1c(C)c2c(C)nn(-c3ccccc3)c2[nH]c1=O,-0.89
C=C1c2cc(OC)ccc2NC(=O)N1CC,0.75
Cc1ccc(NC(=O)Cc2nn(C)c(=O)c3ccccc23)cc1F,0.11
Cc1cc(N2CCCC2)ccc1/C=N/n1cnnc1,-0.5
Cc1nnc(Sc2nc3c(c(=O)n(C)c(=O)n3C)n2Cc2ccc(Cl)cc2)s1,1.2
COc1ccc(S(=O)(=O)N(C)CC(=O)Nc2ccccc2C(F)(F)F)cc1OC,0.28
O=C(CCn1c(=O)oc2ccccc21)Nc1ccc2c(c1)OCCO2,0.56
O=C(COc1ccccc1)Nc1nnc(-c2ccccc2)o1,-0.03
CCn1cc(Cl)c(C(=O)Nc2nc3ccccc3n2CCN2CCCCC2)n1,-1.8
c1nc(NC2CCCCCC2)c2[nH]cnc2n1,-2.4
CCN1C(=O)/C(=C2/Sc3ccc(OC)cc3N2C)SC1=Nc1ccc(C(C)=O)cc1,0.4
CCS(=O)(=O)N1CCC(C(=O)NCc2ccc(F)cc2)CC1,-0.75
OC1CCN(c2ncnc3nc[nH]c23)CC1,0.28
CCOC(=O)C1CCN(c2ncnc3nc[nH]c23)CC1,0.86
CCOC(=O)N1CCN(c2ncnc3nc[nH]c23)CC1,2.2
COc1ccccc1NC(=O)C1=C(C)Nc2ncnn2C1c1cccs1 (stereo not drawn),-0.59
COCCNS(=O)(=O)c1ccc2c(c1)C(=O)c1cc(S(=O)(=O)NCCOC)ccc1-2,-0.73
CC(=O)c1c(C)n(-c2ccccc2)c2ccc(O)cc12,0.1
CSc1nc2ccccc2n1CC(=O)Nc1ccc(C)c(C)c1,1.2

# New compounds follow.
SMILES,WNV protease inh
O=C(NCc1ccc2c(c1)OCO2)c1cccc(N2CCCC2=O)c1,-0.09
Cc1noc(COc2ccc(OCc3nc(C)no3)cc2)n1,0.06
CCOC(=O)N1CCN(S(=O)(=O)c2ccc(OCC(=O)OC)c(C)c2)CC1,0.19
OCc1ccnc2c(O)cccc12,0.14
Cc1cccc(-n2nc3c(c2NC(=O)c2ccc(Br)o2)CSC3)c1,-1.2
O=C(OC1CCCCC1)c1ccc2c(c1)C1C=CCC1C(C(=O)O)N2 (stereo not drawn),-5.6*
CC(C)Nc1nc(SCC(=O)Nc2ccccc2)nc(N2CCOCC2)n1,-0.82
O=C(CCCCn1c(=O)c2ccccc2n(Cc2ccc(F)cc2Cl)c1=O)NCc1ccco1,-0.75
CCn1c(CSc2nnc(-c3ccc4c(c3)OCO4)o2)nc2cc(S(=O)(=O)N(C)C)ccc21,-0.34
O=C(O)c1cc(S(=O)(=O)Nc2ccccc2C(=O)O)ccc1O,-1.4
CCOC(=O)c1ccc(CSc2nncn2N)o1,-1.4
COc1ccc(CCN2C(=O)CC(NCc3ccc4c(c3)OCO4)C2=O)cc1OC (stereo not drawn),0.16
COc1ccc(NS(=O)(=O)c2c(C)n(C)c(=O)n(C)c2=O)cc1OC,0.35
Cc1cc(C)cc(NCC(=O)Nc2c(C)cccc2C)c1,-0.17
CC(=O)[C@@H]1[C@@H]2C(=O)N(c3ccc(F)c(Cl)c3)C(=O)[C@@H]2C2c3ccccc3C=CN21 (stereo partly drawn),0.15
CNc1nc(Nc2ccc(C(C)=O)cc2)nc(OC(C(F)(F)F)C(F)(F)F)n1,2.7
CC1(C)CC(=O)C(/C=N/c2ncccc2C(=O)O)=C(O)C1,0.41
O=C(C1CN(S(=O)(=O)c2ccccc2)CCN1S(=O)(=O)c1ccccc1)N1CCCCCC1 (stereo not drawn),-1.3
CSc1cccc(NC(=O)C2CCCN2S(=O)(=O)c2ccc3c(c2)CCC(=O)N3)c1 (stereo not drawn),0.55
CCOC(=O)c1cnc2c(C)cccc2c1NCc1ccco1,0.57
COC(=O)c1cc(S(=O)(=O)N2CCOCC2)c(N2CCOCC2)cc1N1CCOCC1,0.48
COc1ccc(-c2cc(C(F)(F)F)nc(N3CCN(c4ccc(F)cc4)CC3)n2)cc1OC,0.68
O=C(Nc1ccccn1)c1cc(-n2cnnc2)ccc1Cl,-0.27
O=C(Nc1ccc(Cl)c(Cl)c1)c1ccncc1,0.59
O=C(O)c1cc2cc(F)ccc2[nH]1,1.1&0.35

# More records follow:
SMILES,WNV protease inh
CCC(=O)N1CCc2cc(S(=O)(=O)N3CCc4ccccc4C3)ccc21,-0.63
CCN1C(=O)CC(n2c(C)nc3ccccc32)C1=O (stereo not drawn),0.47
CCOC(=O)c1[nH]c2c(c1C)C(=O)CC(c1ccc(OCC)c(OC)c1)C2 (stereo not drawn),-0.04
CC(C(=O)NCc1ccccc1)N1C(=O)C2CC=C(Cl)CC2C1=O (stereo not drawn),0.48
Cc1ccc(CNC(=O)CN2CCN(Cc3ccc(Cl)cc3)C2=O)cc1,-1.2
COc1ccc(CCNC(=O)CN(C)S(=O)(=O)c2cccs2)cc1OC,0.71
O=C(Nc1c(F)cc(F)cc1Br)c1cccnc1,0.38
CCOC(=O)C1C2C=CC3(CN(c4cccc(Cl)c4)C(=O)C13)O2 (stereo not drawn),-0.42
CCOC(=O)CCc1c(C)n(CC)c2ncnn2c1=O,0.95
O=P(c1ccccc1)(c1ccccc1)C(O)c1ccco1 (stereo not drawn),-1.2
CCOc1ccccc1OCC(=O)Nc1ccc(S(=O)(=O)Nc2nc(C)cc(C)n2)cc1,0.12
O=C1C=C(NCc2ccc(Cl)c(Cl)c2)CC1,-1.1
Cc1[nH]c(=O)[nH]c(=O)c1S(=O)(=O)N1CCCC(C(=O)NCCc2ccccc2)C1 (stereo not drawn),-1.3
COc1ccccc1C(=O)n1nc(-c2cccnc2)nc1N,0.52
CCCCCCN=CC1=C(O)C(C(=O)OC)C(C)(C)CC1=O (stereo not drawn),-0.99
Cc1ccc(NS(=O)(=O)c2ccc3c(c2)c(=O)n(C)c(=O)n3C)cc1F,-0.06
COc1ccc(-c2noc(CCC(=O)N3CCN(c4cccc(C(F)(F)F)c4)CC3)n2)cc1,1.8
O=C(Cn1nnc(-c2ccc3c(c2)OCO3)n1)NCc1ccco1,0.85
CCC(C)(NC(=O)CNC(C)=O)C(=O)NC1CCCCC1 (stereo not drawn),-0.53
O=C(NCc1ccco1)c1cccc(NC(=O)c2ccccc2)c1,-1.2
COC(=O)C1=C(C(=O)c2ccccc2)C(c2cccs2)n2nnnc2N1 (stereo not drawn),1.3
N#Cc1c2n(cnc1=O)CCCCC2,0.75
CC1=NC(C(F)(F)F)(C(F)(F)F)C2=C(CC(C)(C)CC2=O)N1Cc1ccco1,0.45
CC1CCN(S(=O)(=O)c2cccc(C(N)=O)c2)CC1,-1.2
CCN1C(=O)C2(C(C#N)=C(N)Oc3cc(C)oc(=O)c32)c2ccccc21 (stereo not drawn),-0.07

# (listing goes on)
SMILES,WNV protease inh
COC(=O)C1C(=O)c2c([nH]c(C(=O)OC3CCCC3)c2C)CC1C (stereo not drawn),-0.24
COc1ccccc1N=Cc1nc(-c2ccccc2)oc1OC(C)=O,-0.07
CS(=O)(=O)N(CC(=O)O)c1ccc2c(c1)OCO2,1.4
Cn1c(=O)n(C)c2cc(S(=O)(=O)NCc3ccccc3)ccc21,-0.18
CCOC(=O)NC(O)C(=O)c1cccs1 (stereo not drawn),-1
COc1ccccc1OCc1ccc(C(=O)N2CCN3CCCC3C2)cc1 (stereo not drawn),-1.5
COc1cccc(N2CCN(S(=O)(=O)c3ccc4nc(-c5ccccc5)[nH]c4c3)CC2)c1,0.1
CC1CCCN(c2ncnc3c2cnn3-c2ccc(Cl)cc2)C1 (stereo not drawn),-1.4
c1ccc(-c2noc(CSc3nnnn3-c3ccccc3)n2)cc1,-0.01
COc1cccc(-c2cc(C(=O)N3C(C)CCCC3C)no2)c1 (stereo not drawn),-0.56
CCCCN1C(=O)C(NC(C)=O)c2ccccc21 (stereo not drawn),-0.07

# Grouped by structure: the entries above containing a cyano group (2)
SMILES,WNV protease inh
N#Cc1c2n(cnc1=O)CCCCC2,0.75
CCN1C(=O)C2(C(C#N)=C(N)Oc3cc(C)oc(=O)c32)c2ccccc21 (stereo not drawn),-0.07
